Assay outcomes from PubChem BioAssay.
RanGTP-Impb inh = inhibitors of RanGTP-importin-beta interaction, primary screen, biochemical, FRET, CFP-Ran, YFP-importin-beta, homogeneous; cell-free CFP-Ran/YFP-importin-beta FRET ratio; inhibition, % (test concentration not listed); 300,000 compounds, 1.1% hits;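 active = most replicates above 15%; inconclusive = exactly half above 15%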;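 also: 0% = DMSO wells and 100% = Ran loaded with GDP instead of GTP; wells of about 40 µL received 100 nL stock; the first replicate is given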
Vif A3G = inhibitors of Vif binding to APOBEC3G peptide, primary screen, biochemical, TR-FRET, GST-Vif 1-94, biotin-A3G peptide, dose response retest (AID 1117319); 260,000 compounds, 0.57% hits; inhibition, %; hits with a dose series show IC50 in µM; TR-FRET GST-Vif / biotin-A3G peptide binding; higher % means a stronger effect; test concentration not given here; strong numbers were not always called active;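 active = above the screen mean plus three standard deviations and confirmed in dose response; inconclusive = results disagree or hit not tested in dose response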;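 also: Vif residues 1-94 fused to GST binding biotinylated APOBEC3G peptide 110-148; 0% = full assay without inhibitor and 100% = GST in place of GST-Vif; retest series ran down from 100 µM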
Calb FLC = affects C. albicans growth with fluconazole; AID 1979; C. albicans CaCi-2 (fluconazole-resistant clinical isolate) + fluconazole, Alamar Blue growth, 48 h; growth inhibition, % (no concentration beside the values); 300,000 compounds, 0.57% hits;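 active = most replicates above 75%; inconclusive = exactly half above 75%; inactive = most below 75%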;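 also: all wells also contain fluconazole at 8 µg/ml as a sub-toxic cotreatment; 0% = median of DMSO wells and 100% = median of geldanamycin control wells; wells of about 8 µL received 7.5 nL stock; the first replicate is given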
HNF4A DNA FP = change in binding of human HNF4 alpha to DNA; AID 1224865; P41235; activity change, % at 10 µM; 360,000 compounds, 0.3% hits; HNF4a-FITC DNA binding, fluorescence polarization, 1 h; in the data active = activity change above about 30%, passing the limit was not always enough;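 also: controls were the assay level and a saturating level of protein; the project sought stronger binding though the title names inhibitors; some compounds called inactive have numbers as strong as hits; positive values seem to mean higher polarization but the record does not say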
Target sequence (P41235 whole entry, looked up): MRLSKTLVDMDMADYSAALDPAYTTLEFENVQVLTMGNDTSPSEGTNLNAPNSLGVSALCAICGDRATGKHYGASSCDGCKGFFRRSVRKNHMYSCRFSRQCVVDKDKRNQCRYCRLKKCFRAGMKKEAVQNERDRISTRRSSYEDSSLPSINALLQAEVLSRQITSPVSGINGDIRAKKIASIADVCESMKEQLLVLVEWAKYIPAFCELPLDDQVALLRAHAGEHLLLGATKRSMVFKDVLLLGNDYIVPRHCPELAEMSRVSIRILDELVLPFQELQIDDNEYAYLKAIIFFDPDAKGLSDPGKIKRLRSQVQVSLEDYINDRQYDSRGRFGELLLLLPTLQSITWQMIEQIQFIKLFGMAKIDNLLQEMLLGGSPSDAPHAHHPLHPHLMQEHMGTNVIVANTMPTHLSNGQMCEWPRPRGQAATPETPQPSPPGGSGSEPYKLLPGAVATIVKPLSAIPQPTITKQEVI
Beta2AR agonist = agonists of human beta-2 adrenergic receptor inducing internalization; P07550; Am2.2-beta2AR cells, FAP receptor internalization, flow cytometry; reference of the scale not given here; response, % (concentration not given with the values); 340,000 compounds, 0.43% hits;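 active = response above a set limit, near 3 SD of response in nonfluorescent compounds, cut at about 42% in these data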;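 also: stock transfer was 100 nL into about 11 µL; a reference agonist was the positive control; negative values mostly stem from fluorescent compounds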
Target sequence (P07550 whole entry, looked up): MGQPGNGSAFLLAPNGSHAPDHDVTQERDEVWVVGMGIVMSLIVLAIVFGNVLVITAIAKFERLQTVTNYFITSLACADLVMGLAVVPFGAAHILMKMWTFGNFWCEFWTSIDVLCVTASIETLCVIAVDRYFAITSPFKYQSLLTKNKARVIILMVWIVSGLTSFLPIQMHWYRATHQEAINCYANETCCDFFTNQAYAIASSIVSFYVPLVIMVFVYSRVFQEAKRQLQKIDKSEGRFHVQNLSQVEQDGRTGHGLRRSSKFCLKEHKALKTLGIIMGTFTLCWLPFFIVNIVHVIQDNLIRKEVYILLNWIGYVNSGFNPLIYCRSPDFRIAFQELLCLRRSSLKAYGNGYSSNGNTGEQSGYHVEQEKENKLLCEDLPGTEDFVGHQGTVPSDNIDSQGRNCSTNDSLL
LANA-H2B inh = blocks KSHV LANA binding to histone H2A/H2B; 320,000 compounds, 0.6% hits; inhibition, % (concentration not given with the values); cell-free LANA-H2A/H2B peptide, fluorescence polarization; Q9QR71; AID 2629; in the data active = inhibition mostly above about 10%, no sharp cut-off; inactive = mostly below about 6.7%;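 also: stock transfer was 7.5 nL into about 10 µL; 0% = median of vehicle wells and 100% = median of positive control wells; one replicate is shown; the record names a cut of 25% in any replicate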
ALR inh = human ALR oxidase inhibition via reduced H2O2; purified ALR, DTT oxidation, H2O2 HRP-luminol luminescence; inhibition, % (no concentration beside the values); 290,000 compounds, 3.8% hits;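 active = mean and each replicate at 75% or more; inconclusive = only one of the two met; inactive = neither met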;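 also: stock transfer was 7.5 nL into about 7.5 µL; 0% = neutral wells and 100% = wells with inactivated enzyme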
Target sequence (P55789 whole entry, looked up): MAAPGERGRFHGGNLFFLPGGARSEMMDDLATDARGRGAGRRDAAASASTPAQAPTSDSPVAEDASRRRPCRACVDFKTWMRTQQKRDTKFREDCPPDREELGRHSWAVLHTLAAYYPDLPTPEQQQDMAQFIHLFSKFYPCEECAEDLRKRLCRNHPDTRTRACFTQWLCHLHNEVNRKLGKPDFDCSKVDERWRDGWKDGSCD
Starred values were filed as active, the others as inactive; u = inconclusive; x = not tested or not shown.

SMILES | RanGTP-Impb inh | Vif A3G | Calb FLC | HNF4A DNA FP | Beta2AR agonist | LANA-H2B inh | ALR inh
C=CCn1c(C(C)NC(=O)c2cccs2)n[nH]c1=S (configuration not stated) | -0.2 | 4% | 0 | 0.9 | 4 | -4.8 | -2
CCN(CC)C(=S)NC(=O)C12CC3CC(CC(C3)C1)C2 | 1.7 | x | 0 | -2.6 | 1 | -3.0 | 0
CC(C)(C)Cc1nnc(NS(=O)(=O)c2ccc([N+](=O)[O-])cc2)s1 | 2.0 | x | 3 | -0.5 | 11 | 8.0 | -14
COc1ccc(C(=O)n2nc(C)c(Br)c2C)cc1OC | u | x | 3 | -0.2 | 0 | 2.7 | -10
COc1ccc(CCNC(=O)/C=C\c2ccccc2)cc1OC | 1.2 | 22% | 0 | 2.5 | 1 | -12 | -1
O=C1c2ccccc2C(=O)N1CCc1ccccn1 | u | 1% | 9 | 3.2 | 1 | -6.4 | 8
CC(C)Cc1nc(N2CCOCC2)c(C#N)c2c1CCC2 | -2.1 | -2% | 11 | -3.9 | 6 | 2.2 | -6
CCOC(=O)c1c(C)noc1-c1ccco1 | 1.5 | -3% | -5 | 4.1 | -5 | 2.2 | -8
CCn1c(CC(=O)Nc2ccccc2)nnc1SCC(=O)NC1CCCC1 | 2.7 | x | -2 | 1.0 | -4 | -3.3 | -2
CS(=O)(=O)N1CCC(Oc2ccccc2C(=O)NC(C2CC2)C2CC2)CC1 | -4.8 | -3% | 1 | 0.8 | -6 | -4.3 | -6
NS(=O)(=O)c1ccc(NC(=O)COC(=O)Cc2c[nH]c3ccccc23)cc1 | x | -3% | x | 4.9 | 2 | 0.1 | 50
COc1ccc(OC)c(NC(=O)CNC(=O)Cn2ccc3ccccc3c2=O)c1 | 6.1 | -2% | -1 | -4.0 | -7 | 0.3 | -10
COC(=O)C(OC(=O)c1ccccc1)C(C)Br (configuration not stated) | x | x | x | -0.9 | 6 | -1.5 | 0
COc1ccc(/C(N)=N/OC(=O)Cc2ccc(OC)c(OC)c2)cc1 | 3.0 | -3% | -12 | -1.1 | 6 | -2.0 | 3
Cn1c(SCC(=O)NCC2CCCO2)nnc1-c1ccco1 (configuration not stated) | x | -2% | x | -2.2 | -4 | x | x
CCc1ccc(OCC(=O)OC(C)C(=O)Nc2ccc(Cl)cn2)cc1 (configuration not stated) | x | 16% | x | -2.7 | 1 | -3.9 | -10
O=C(NCC(=O)N1CCN(C(=O)c2ccccc2)CC1)c1ccc(Cl)cc1Cl | x | x | x | -0.9 | -7 | -3.7 | -3
Cc1nc2ccccc2c(=O)n1/N=C/c1ccco1 | 0.3 | 2% | -11 | 5.2 | -4 | -5.5 | -8
COc1ccc(NC(=O)CN(C)CC(=O)Nc2ccccc2SC)cc1 | 5.9 | x | -7 | -2.9 | 0 | -1.3 | -29
O=C(CSCc1ccc(F)cc1)NC1CCCC1 | -2.1 | -2% | -8 | -4.2 | 6 | 0.6 | -4
CC(C)c1cc(C(=O)N2CCCC(Nc3ccc(F)cc3)C2)nc(N)n1 (configuration not stated) | -0.5 | x | 4 | -1.9 | -2 | -0.7 | 41
O=C(Nc1cc(Cl)ncn1)c1ccccc1 | 0.7 | x | 3 | -0.3 | 4 | -6.9 | 2
O=C(Nc1ccccc1)C1CCCN(S(=O)(=O)c2ccc(-n3cnnn3)cc2)C1 (configuration not stated) | -2.2 | 0% | -13 | 1.4 | -3 | 1.8 | -12
O=[N+]([O-])c1ccccc1C=NNc1ccccc1 | x | -9% | x | -0.7 | 4 | x | x
Cc1noc(C)c1S(=O)(=O)N1CCN(c2ccc([N+](=O)[O-])cc2)CC1 | 2.0 | x | 25 | -3.1 | -2 | 15* | -8
Cc1cccc(CCNC(=O)CN(C)S(=O)(=O)c2ccc3c(c2)c(=O)n(C)c(=O)n3C)c1 | u | -6% | -3 | -0.2 | -1 | -4.3 | -5
COc1ccc(NC(=O)CSc2nc3c(cc2C#N)CN(C)CC3)cc1 | -1.4 | >100µM* | 10 | 0.6 | -3 | -0.6 | 97*
Cc1nc(-c2ccccc2)sc1C(=O)CSc1ccc(Cl)cc1 | 0.1 | 6% | 1 | 0.5 | 1 | 1.5 | x
COc1ccc(CC(=O)OCC(=O)c2c(N)n(C)c(=O)n(C)c2=O)cc1OC | x | -6% | x | 3.8 | 6 | -94 | 0
Cc1ccc(C)c(N(CC(=O)NC2CCCC2)C(=O)CCC(=O)Nc2nccs2)c1 | 0.5 | 1% | 1 | 1.1 | 1 | 5.6 | -7
COc1cccc(/C=C/c2ccncc2)c1OC | -1.6 | 3% | 1 | 1.1 | 4 | 3.1 | x
N#CC1(NC(=O)CN2CCN(S(=O)(=O)c3ccccc3F)CC2)CCCC1 | 0.1 | 5% | 10 | 2.7 | 3 | 1.9 | -3
COC(=O)C1=C(C)NC(C)=C(C(=O)OC)C1/C=C/c1ccccc1 | -1.8 | -8% | -14 | 3.6 | -4 | 1.4 | 26
Cc1onc(-c2ccccc2)c1C(=O)Nc1sc2c(c1C(N)=O)CCC2 | 51* | -3% | 8 | 4.5 | -11 | -0.2 | -6
CC1CC(C)CN(S(=O)(=O)c2ccc(C(=O)N3CCCC3)cc2)C1 (configuration not stated) | 0.4 | 4% | 1 | -1.1 | -3 | -1.6 | -4
Cc1ccccc1CS(=O)(=O)Cc1ccc(C(=O)NCCc2ccccc2)o1 | -4.5 | x | -2 | -0.4 | 8 | 15* | 25
COc1ccc(C2=Nn3c(nnc3-c3ccccc3Cl)SC2)cc1OC1CCCC1 | x | x | x | 4.1 | -2 | 3.0 | 1
O=C1CC2(CCN(C(=O)C(=O)c3c[nH]c4ccccc34)CC2)Oc2ccccc21 | 1.6 | x | 8 | 3.0 | -5 | -2.7 | -7
C/C(=N\OCc1ccccc1)c1c(O)cc(C(C)C)n(-c2ccccc2)c1=O | -0.5 | 3% | -9 | -0.1 | -1 | -1.5 | -3
Cc1occc1C(=O)NC(C)C1CCCO1 (configuration not stated) | -5.0 | u | -4 | -19 | 3 | -2.2 | -3
CC1CCCC(C)N1CC(C)(C)NS(=O)(=O)c1ccc(Cl)cc1 (configuration not stated) | 4.5 | 3% | 6 | 2.4 | -5 | 3.7 | -9
O=C1CCCc2nc3c(cc21)C(O)Oc1c-3ccc2ccccc12 (configuration not stated) | -3.2 | 9% | 37 | 0.2 | -4 | 5.4 | -3
CC1CC(C)CN(CCCNC(=O)CCNC(=O)Cn2cnc3ccccc3c2=O)C1 (configuration not stated) | 2.8 | -8% | 8 | 2.8 | 3 | -4.8 | x
CC(=O)N1CCSc2ccc(S(=O)(=O)NCCc3ccc(C)cc3)cc21 | -0.7 | 2% | 11 | 14 | -8 | 4.1 | 2
C/C(=N/NC(=O)c1sc(NS(=O)(=O)c2ccccc2)nc1C)c1ccccc1 | -3.4 | 12% | 35 | -0.9 | 6 | -0.7 | 34
CCc1ccc(NC(=O)CC2C(=O)NCCN2C(=O)c2ccccc2OC)cc1 (configuration not stated) | 1.7 | x | -2 | -1.9 | 5 | 2.5 | 2
Cc1ccc(CN2CCN(CCCn3cccn3)CC2CCO)cc1 (configuration not stated) | 0.0 | -5% | -9 | 2.4 | 2 | 2.7 | -17
COc1ccccc1C1CC(=O)Oc2cc(C)c(Cl)cc21 (configuration not stated) | x | -5% | x | -2.4 | 10 | x | x
Cc1ccc(C=Nc2cccnc2N)cc1 | 14 | x | -10 | -6.7 | -2 | -1.2 | 13
COc1ccc(C(=O)CC(=O)C(=O)Nc2cccc(F)c2)cc1 | -3.8 | 5% | -2 | 0.2 | 9 | -3.1 | 80*
CCCN1CCN(CCCNC(=O)CN2C(=O)C(CC)Oc3ccccc32)CC1 (configuration not stated) | u | -12% | -4 | -4.0 | 3 | 2.1 | 1
O=C(O)COCC(=O)Nc1ccc(Oc2ncnc3cc(Cl)ccc23)nc1 | 1.9 | 6% | 10 | 2.9 | 21 | 6.5 | -8
CCn1cc2nc(SCC(=O)Nc3ccc(OC)cc3OC)n(Cc3ccc(OC)cc3)c(=O)c2n1 | -7.8 | x | -5 | 2.6 | -11 | 0.7 | -5
CC1CCCCN1C(=O)Cc1ccc(Cl)cc1 (configuration not stated) | 4.4 | 0% | -3 | -0.3 | -5 | 3.6 | -6
COc1ccc(OCC(O)CN2CCN(c3ccccc3)CC2)cc1 (configuration not stated) | 1.6 | 11% | -9 | -1.0 | 1 | -0.4 | 33
O=C(O)CC(Cc1ccc(Br)cc1)C(=O)Nc1ccccc1 (configuration not stated) | -0.5 | x | 6 | 0.2 | 0 | -1.4 | 9
COc1ccc(CC(=O)Nc2ccc3c(C)cc(=O)oc3c2)cc1OC | -2.0 | 5% | 3 | 3.2 | 4 | 0.6 | -3
O=S(=O)(NCC(O)COCc1ccco1)c1cccs1 (configuration not stated) | 1.4 | u | 14 | 0.6 | 2 | 1.4 | -6
CCN1CCCC1CNC(=O)c1cc2ccc(OC)cc2[nH]1 (configuration not stated) | -0.6 | 0% | -2 | 2.3 | -4 | -4.4 | -24
CCOCCCNC(=O)CN1C(=O)COc2ccc(S(=O)(=O)N3CCCCCC3)cc21 | 1.2 | 3% | -4 | 0.7 | 0 | x | -32

More compounds follow.
SMILES | RanGTP-Impb inh | Vif A3G | Calb FLC | HNF4A DNA FP | Beta2AR agonist | LANA-H2B inh | ALR inh
COc1ccc(CCN(CC(=O)NC(C)(C)C)C(=O)Cn2nnc(-c3ccc(C)o3)n2)cc1OC | -0.5 | -3% | -11 | 4.8 | -2 | 5.3 | -5
CCC(Oc1ccccc1)C(=O)Nc1ccc(S(=O)(=O)Nc2cc(C)on2)cc1 (configuration not stated) | -2.5 | x | 0 | 0.2 | 8 | 1.6 | 2
CC(=O)N1c2ccc(S(=O)(=O)NCCc3ccccc3)cc2CC1C (configuration not stated) | -0.2 | 1% | -16 | 1.4 | -2 | -3.6 | -1
Nc1nnc(CSCc2ccccc2)s1 | 1.4 | 3% | -2 | -0.1 | 2 | 1.8 | -5
COC(=O)CSc1nnc(CNC(=O)c2ccco2)n1-c1ccc(F)cc1 | -1.6 | 3% | -3 | -5.2 | 0 | -4.9 | -6
Cc1nc2ccc(NC(=S)N3CCN(c4ccccn4)CC3)cc2nc1C | -5.1 | x | -6 | -2.6 | -23 | 4.3 | -32
COc1cccc(CC(=NO)c2cccc(OC)c2)c1 | x | 0% | x | 0.6 | 9 | x | x
CCOc1cc(/C=N\NC(=O)c2ccc(C)nc2)ccc1OC(=O)c1ccc(F)cc1 | -1.8 | x | -5 | 0.7 | -8 | -6.3 | -8
COc1ccc(S(=O)(=O)NCc2cn3c(C)csc3n2)cc1F | -3.1 | 1% | -3 | 2.6 | -6 | -3.1 | -5
Cc1cc(=O)oc2cc(OCC(=O)OCC(=O)Nc3ccc(C(N)=O)cc3)ccc12 | -1.2 | 26% | 2 | -0.3 | 1 | 1.5 | 7
O=C(CN1CCN(C(=O)c2ccc(-c3nc4ccccc4s3)o2)CC1)Nc1ccccc1Cl | x | -10% | x | 1.5 | 32 | x | x
CCOC(=O)c1[nH]cnc1C(=O)N1CCC(C)CC1 | x | x | x | -4.2 | 5 | -1.5 | -3
Cc1ccc(/C=N/Nc2ccccn2)s1 | 0.6 | -6% | 12 | -2.4 | -5 | 4.0 | 13

Whole records, quoted from the list. Values in the order: RanGTP-Impb inh, Vif A3G, Calb FLC, HNF4A DNA FP, Beta2AR agonist, LANA-H2B inh, ALR inh
Results for COc1ccc(CCN(CC(=O)NC(C)(C)C)C(=O)Cn2nnc(-c3ccc(C)o3)n2)cc1OC : -0.5, -3%, -11, 4.8, -2, 5.3, -5
Results for Cc1ccc(/C=N/Nc2ccccn2)s1 : 0.6, -6%, 12, -2.4, -5, 4.0, 13
Results for CC(=O)N1c2ccc(S(=O)(=O)NCCc3ccccc3)cc2CC1C (configuration not stated) : -0.2, 1%, -16, 1.4, -2, -3.6, -1
